Env fusion inh: inhibitors of HIV Env-mediated cell fusion; HeLa-JRFL Env/CEM21 cell fusion, luciferase; inhibition, % at 12.3 µM; actives 1.1% (n = 360,000); AID 651610;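 active = mean replicate inhibition score of at least 50 and every replicate individually at or above 50; inconclusive = only one of the two criteria met; inactive = mean below 50 and not all replicates reaching 50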;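 also: 0% = plate neutral controls and 100% = maraviroc near 300 nM; one replicate is shown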
MT1-MMP act inh: blocks activation of human MT1-MMP. P50281. HT1080 RFP-PRO-GFP cells, GFP/RFP ratio fluorescence, overnight; percent of plate control window, DMSO zero. actives 0.061% (n = 360,000). GFP/RFP ratio change, % at 20 µM;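 active = GFP/RFP ratio change of at least 30% with cell ATP level not reduced by more than half and red fluorescence within 50% of control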; also: strong numbers were not always called active
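Compound: 20 µM single dose, 1% DMSO / System: HT1080 RFP-PRO-GFP cells / Controls: DMSO and RFP-L50D-GFP cell wells / Read-out basis: GFP/RFP fluorescence ratio / Schedule: overnight compound exposure at 37 °C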
MT1-MMP act inh RFP: second read-out of MT1-MMP act inh, no call of its own (marks repeat the call); RFP signal change, %; measured here: RFP expression control read;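 0 = vehicle wells; hits needed this value within 50% of zero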
An asterisk follows results filed as active; ? = inconclusive; & = joins results of further samples; [ ] = another dose, or the depositor's remark.

nr	Compound	Env fusion inh	MT1-MMP act inh	MT1-MMP act inh RFP
1	COc1ccc(CN2C(=O)CCC2(C)c2nnnn2-c2c(C)cccc2C)cc1OC (stereo not given)	-5	5	5
2	O=C(NC1CCCC1)c1nc(-c2c(F)cccc2F)oc1-c1ccccc1	27	-4	-4
3	O=C1C=CN(C2OC(CO)C(O)C2O)C(=O)C1 (stereo not given)	65*	4	5
4	CCCn1cnnc1CNC(=O)[C@H]1O[C@@H](n2ccc(N)nc2=O)[C@H](O)[C@@H]1O	17	1	2
5	CCCCOc1ccc(N2C(=O)C(C)CNC2=S)cc1 (stereo not given)	-16	0	3
6	CCOc1ccc(CCN2C(=O)C(=O)N([C@@H](Cc3ccc(O)cc3)CN3CCC[C@H]3CN3C(=O)C(=O)NC[C@@H]3Cc3ccc(O)cc3)C[C@@H]2Cc2ccccc2)cc1	-8	5	7
7	O=C1NC[C@H](Cc2ccc(O)cc2)N(CCc2cccc(F)c2)C1=O	-12	5	5
8	O=C1NC[C@H](Cc2ccccc2)N(CCc2cc(C(F)(F)F)cc(C(F)(F)F)c2)C1=O	-27	8	-3
9	COc1ccc(OC)c(C(=O)COC(=O)c2[nH]c(C)c(C(C)=O)c2C)c1	-62	-13	-12
10	Cc1ccc(S(=O)(=O)NNC(=O)c2cc(C)c(C)cc2N)cc1	5	-1	0
11	O=C(OCc1ccccc1)N(CCCCN(CCCNCc1ccccc1)C(=O)OCc1ccccc1)CCCNCc1ccccc1	2	-33	-22
12	CCCCc1c(-c2ccccc2Br)ncn1CCc1ccccc1OC	24	-8	-30
13	Cc1ccc([C@H]2C[C@@H](n3cc(COC(=O)c4ccccc4)nn3)[C@H](O)CN2C(=O)c2cccs2)cc1	7	3	3
14	CC1Cc2ccccc2N1S(=O)(=O)c1cccc(C(=O)N2CCCCC2)c1 (stereo not given)	-7	-1	-4
15	Cc1ccccc1CN1C(=O)CN(S(C)(=O)=O)CC1(C)C(=O)NC(C)C (stereo not given)	-2	12	8
16	CCCCNC(=O)c1nc(-c2ccncc2)oc1-c1ccc(OC(F)(F)F)cc1	32	-1	-4
17	C[C@@H]1CC2=C(C(=O)OC(C)(C)O2)[C@H](c2ccc(F)cc2)O1	-12	-1	1
18	NC(=S)N=Nc1c(O)cc(O)c2[nH]c(=O)ccc12	-2	7	0
19	COC1=CC(=O)OC(c2cccc(OC)c2)C1 (stereo not given)	-6	0	3
20	CSCCC(C(=O)Nc1c(C)cccc1C)n1c(-c2ccc(C(F)(F)F)cc2)nc2ccccc21 (stereo not given)	20	5	2
21	COC(=O)C(CSCc1ccccc1)NC(=O)CCNC(=O)OCc1ccccc1 (stereo not given)	14	-3	0
22	N#CC1C(=O)c2ccccc2C1c1ccccc1 (stereo not given)	-396	4	-3
23	O=C1c2ccccc2C(c2nnnn2-c2ccc3c(c2)OCCO3)N1Cc1cccc(F)c1 (stereo not given)	8&-28	2&4	-1&7
24	COc1cccc(C2CC(OCCF)=CC(=O)O2)c1 (stereo not given)	4	5	9
25	Nc1nc2c(Br)ccc(Br)c2cc1C(=O)NCc1cccc2ccccc12	-59	4	4
26	COC(=O)CCCn1cc(CN2CC(N3CCCC3)CS2(=O)=O)nn1 (stereo not given)	0	3	5
27	COc1ccccc1-c1noc2c1C(=O)N(Cc1cn(C3CCCC3)nn1)CC2	4	1	2
28	CN(C)CCNC(=O)c1cccc2[nH]c(-c3ccncc3)nc12	-131	8	5
29	COc1cccc(C=C2Cc3ccccc3C2=O)c1	-23	-3	-1
30	CCOC(=O)[C@]12CCC=C1N(CCC1=CCCCC1)C(=O)[C@H](CC(=O)N1CCN(C(=O)C3CC3)CC1)C2	-16	2	2
31	O=C1NC[C@H](Cc2ccc(O)cc2)N(CCc2cc(C(F)(F)F)cc(C(F)(F)F)c2)C1=O	-29	2	2
32	COc1cccc(-c2sc3ccc(OC)cc3c2-c2cnc(N3CCOCC3)nc2)c1	-19	2	1
33	CC(C)(C)OC(=O)N1CCc2onc(-c3ccc(-n4cc(C5=CCCCC5)nn4)cc3)c2C1=O	-63	4	-4
34	N#Cc1ccc(C2CC(OCCF)=CC(=O)O2)cc1 (stereo not given)	0	-1	6
35	O=C1c2ccccc2C(c2nnnn2Cc2ccccc2)N1Cc1cccs1 (stereo not given)	8&14	-1&3	4&1
36	S=C(Cc1ccccc1)Nc1ccccc1	7	1	-1
37	COCCNc1nc2cc(-c3ccc(C)cc3)sc2c(=O)n1C	-40	7	-5
38	COc1cc(C)c(C2NC(=O)c3ccccc3N2)cc1C (stereo not given)	-379	4	-12
39	N#CC(c1ccc(O)cc1)N1CCN(C(C#N)c2ccc(O)cc2)CC1 (stereo not given)	1	-2	-1
40	CCCCCCn1cc(CN2CC(N(C)C)CS2(=O)=O)nn1 (stereo not given)	3	-1	4
41	COc1ccccc1Cc1c(-c2ccco2)nc2cc(C)c(Br)c(C)n12	-15	-5	-2
42	O=c1oc2cc(O)ccc2cc1-c1nc2ccccc2o1	-12	-73	0
43	O=C(NCCN1CCC(n2c(=O)[nH]c3ccccc32)CC1)c1ccc(F)c(F)c1	8	5	-2
44	N#CC(c1ccccc1)C(CC(=O)c1ccccc1)c1ccccc1 (stereo not given)	29	-2	-8
45	O=C(Nc1ccc2ccccc2c1)C(C1CC1)n1c(=O)c(-c2cc3ccccc3[nH]2)nc2ccccc21 (stereo not given)	3	-3	-3

Reprinted at random: seven entries already listed, in no set order.
nr	Compound	Env fusion inh	MT1-MMP act inh	MT1-MMP act inh RFP
32	COc1cccc(-c2sc3ccc(OC)cc3c2-c2cnc(N3CCOCC3)nc2)c1	-19	2	1
36	S=C(Cc1ccccc1)Nc1ccccc1	7	1	-1
44	N#CC(c1ccccc1)C(CC(=O)c1ccccc1)c1ccccc1 (stereo not given)	29	-2	-8
35	O=C1c2ccccc2C(c2nnnn2Cc2ccccc2)N1Cc1cccs1 (stereo not given)	8&14	-1&3	4&1
31	O=C1NC[C@H](Cc2ccc(O)cc2)N(CCc2cc(C(F)(F)F)cc(C(F)(F)F)c2)C1=O	-29	2	2
42	O=c1oc2cc(O)ccc2cc1-c1nc2ccccc2o1	-12	-73	0
45	O=C(Nc1ccc2ccccc2c1)C(C1CC1)n1c(=O)c(-c2cc3ccccc3[nH]2)nc2ccccc21 (stereo not given)	3	-3	-3

The listing continues:
nr	Compound	Env fusion inh	MT1-MMP act inh	MT1-MMP act inh RFP
46	COc1cccc(NC(=O)C2(C)CCCN2C(=O)C(C)C)c1 (stereo not given)	21	5	8
47	CC(=O)Nc1cccc(OCCCOc2cccc([N+](=O)[O-])c2)c1	-16	0	-2
48	CCOC(=O)c1[nH]c2c(OCC)nc(OCC)nc2c1Br	-3	2	-3
49	O=C(NCCO)c1cccc(-c2ccc3nncn3c2)c1	-18	1	3
50	CC(=O)OCC1OC(n2c(S)c(C#N)c(-c3ccccc3)c(C#N)c2=O)C(OC(C)=O)C(OC(C)=O)C1OC(C)=O (stereo not given)	4	-5	-2
51	O=C1NC[C@H](Cc2ccc(O)cc2)N(C[C@@H]2CCCN2C[C@H](Cc2ccc(O)cc2)N2C[C@H](Cc3ccccc3)N(CC3CCCCCC3)C(=O)C2=O)C1=O	29	4	5
52	CCCCCCCCN1C(=O)[C@H](CC(=O)N2CCC(c3ccccc3)CC2)C[C@@]2(C(=O)OC)CC(C)(C)CC=C12	-4	-14	-15
53	Cc1ccccc1-c1nc(NCC2CC2)nc2ccsc12	5	0	1
54	COc1ccc(C(=O)C=Cc2ccc3c(c2)OCO3)cc1OC	-9	4	2
55	COc1cccc(C(=O)N2CCC[C@H]2C(=O)N2CCC[C@H]2C(=O)NCc2ccccn2)c1	-1	5	5
56	CCOC(=O)[C@]12CCCC=C1N(Cc1ccccc1)C(=O)[C@H](CC(=O)NCCCCc1ccccc1)C2	-241	2	0
57	CO[C@@H]1CN(C)C(=O)c2cc(NC(=O)Nc3cc(F)ccc3F)ccc2OC[C@H](C)NC[C@@H]1C	4[16.7 µM]	3	3
58	CCCc1c(-c2ccc(Cl)cc2)ncn1CCc1ccccc1OC	19	-8	-26
59	COC(=O)[C@@]12C[C@@H](CC(=O)N3CCN(C(=O)C4CC4)CC3)C(=O)N(Cc3ccco3)C1=CCC(C)(C)C2	10	-3	2
60	O=C1C=CC(=NN=C(c2ccccc2)c2ccccc2)C=C1	9	2	1
61	CC(O)(c1ccc(Cl)cc1)C(c1ccccc1)c1ccccn1 (stereo not given)	-14	-4	-3
62	O=S1(=O)CC(N2CCN(Cc3ccccc3F)CC2)CN1Cc1cn(Cc2cccc(C(F)(F)F)c2)nn1 (stereo not given)	24	3	-12
63	CCCCNC(=O)C1c2ccccc2OCC(=O)N1CC(F)(F)F (stereo not given)	-116	5	1
64	CCOC(=O)N1CCN(C(=O)C[C@@H]2C[C@@]3(C(=O)OC)CCCCC=C3N(Cc3ccc4c(c3)OCO4)C2=O)CC1	9	4	6
65	COC(=O)c1ccccc1C(=O)c1c(C)cc(C)cc1C	-50	5	5
66	CCCCCCCCN1C(=O)[C@H](CC(=O)N2CCCCC2)C[C@@]2(C(=O)OCC)CCCC=C12	89*	-7	-14
67	COc1ccc(NC(=O)COC(=O)CNC(=O)COc2ccccc2)cc1OC	11	-2	4
68	OC[C@@H]1CN(Cc2ccc3c(c2)OCO3)C[C@H](n2cnc3c(NCc4ccncc4)ncnc32)O1	7	0	1
69	Nc1nc2ccc(Br)cc2o1	5	1	6
70	COc1cccc(CNC(=O)[C@@H]2CCCN2C(=O)[C@@H]2CCCN2C(=O)c2cccc(Cl)c2)c1	15	3	2
71	COC1=C(NCc2ccc3c(c2)OCO3)C(=O)C(OC)=C(NCc2ccc3c(c2)OCO3)C1=O	-1	1	-3
72	c1ccc2c(C(c3nnnn3-c3ccc4c(c3)OCCO4)N3CCCC3)ccnc2c1 (stereo not given)	-6	2	-1
73	CC(=O)N1CCN(C(C(=O)Nc2c(C)cccc2C)c2ccccc2OC(F)(F)F)CC1 (stereo not given)	1	-3	3
74	CC(=O)OCC1OC(n2c(-c3ccc(Cl)cc3)ccc(C#N)c2=S)C(OC(C)=O)C(OC(C)=O)C1OC(C)=O (stereo not given)	-2	-7	1
75	Nc1[nH]c(C(=O)c2ccccc2)c(-c2ccccc2Br)c1C(=O)NCCc1ccc(Cl)cc1Cl	-5	5	6
76	N#Cc1ccccc1C[C@H](N)C(=O)NC[C@H]1O[C@@H](n2ccc(N)nc2=O)[C@H](O)[C@@H]1O	3	1	5
77	CN1C=Nc2c(ncn2C2CCC(CO)O2)C1O (stereo not given)	-24	8	7
78	CCCCNc1c(-c2ccccn2)nc2nc(C)cc(C)n12	-13	8	19
79	COC(=O)[C@@]12C[C@@H](CC(=O)NCc3ccccc3)C(=O)N(Cc3ccc4c(c3)OCO4)C1=CCC(C)(C)C2	8	-3	-11
80	CCCCn1nc(C(=O)NC2CCCCCC2)c2ccccc2c1=O	21	-2	-2
81	COc1ccc(-c2ccc(N3C(c4ccsc4)=Cc4ccc(F)cc4C3c3c[nH]c4ccccc34)cc2)cc1 (stereo not given)	-29	-19	-12
82	COC(=O)C[C@H]1CC[C@H](NC(=O)Cc2ccccc2)[C@@H](CO)O1	16	1	5
83	C[C@@H](c1ccccc1)N1C[C@@H](COCc2ccccc2)Oc2cc(N3CCC[C@H]3C(N)=O)ccc2S1(=O)=O	?	0	-1
84	Cc1cccc(COC[C@H](Cc2ccccc2)N2CCN(C(=O)c3ccc(C(F)(F)F)cc3)CCC2=O)c1	39	-4	-9
85	CC1(C)OC(=O)C2=C(C[C@@H](C3CCCCC3)O[C@@H]2c2ccc(Cl)cc2)O1	-3	-1	-3
86	CC(=O)c1cccc(OC(=O)Oc2cccc(C(C)=O)c2)c1	-6	3	9
87	CC(=O)OC1C=CN(C(C)=O)C(SC(C)(C)C)C1(C)O (stereo not given)	9	-1	5
88	Cc1cc(-c2ccccc2)cc(=O)[nH]1	-2	-2	-1
89	CCOc1ccc(CCN2C(=O)C(=O)N([C@@H](Cc3ccccc3)CN3CCC[C@H]3CN3C(=O)C(=O)NC[C@@H]3Cc3ccccc3)C[C@@H]2Cc2ccccc2)cc1	-14	-4	-17
90	CSc1ccc(CN2CCC(C)(Oc3ccccc3)C2)cc1 (stereo not given)	5	5	6
91	CC(C)CN1C(=O)CN(S(C)(=O)=O)CC1(C)C(=O)NC(C)C (stereo not given)	-12	3	7
92	CC1(C(=O)Nc2ccc3c(c2)OCCO3)CN(S(C)(=O)=O)CC(=O)N1CCCN1CCOCC1 (stereo not given)	2	-1	3
93	CCOC(=O)[C@]12CCC=C1N(Cc1cccc3ccccc13)C(=O)[C@H](CC(=O)NCCCN1CCCC1=O)C2	-8	0	-2
94	O=C1C=C(N2CCN(c3ccccn3)CC2)C(=O)c2c(O)ccc(O)c21	8	24	-16
95	O=C(NCc1ccccc1)[C@@H]1CCCN1C(=O)[C@@H]1CCCN1C(=O)c1ccc(Cl)cc1Cl	28	5	-2
96	COc1ccc2cc(C3CC=C(CO)CN3S(=O)(=O)c3ccccc3[N+](=O)[O-])n(C(=O)OC(C)(C)C)c2c1 (stereo not given)	65*	-4	-4
97	O=C1NC[C@@H](CCCCN2C[C@H](Cc3ccccc3)N(CC3CCCCC3)C(=O)C2=O)N(CCc2ccccc2)C1=O	-59	6	1

High-throughput results from PubChem.

This is a subset. The share of hits here may be higher or lower than overall.
